# VDR inhibitor – inhibitors of human vitamin D receptor | VDR-SRC2-3 peptide fluorescence polarization, 2 h | Potency, µM, for the others: max response, negative = inhibition, actives largely listed as inhibitors | 400,000 tested, 0.93% active | P11473 | AID 504847; active means well fitted inhibition curve with a large enough effect; inconclusive means small, poorly fitted or top-dose-only effect, or another doubt; inactive means no such curve, though single readings can be large or run the other way; further: series mostly up to about 120 µM
# Target sequence (P11473 whole entry, looked up): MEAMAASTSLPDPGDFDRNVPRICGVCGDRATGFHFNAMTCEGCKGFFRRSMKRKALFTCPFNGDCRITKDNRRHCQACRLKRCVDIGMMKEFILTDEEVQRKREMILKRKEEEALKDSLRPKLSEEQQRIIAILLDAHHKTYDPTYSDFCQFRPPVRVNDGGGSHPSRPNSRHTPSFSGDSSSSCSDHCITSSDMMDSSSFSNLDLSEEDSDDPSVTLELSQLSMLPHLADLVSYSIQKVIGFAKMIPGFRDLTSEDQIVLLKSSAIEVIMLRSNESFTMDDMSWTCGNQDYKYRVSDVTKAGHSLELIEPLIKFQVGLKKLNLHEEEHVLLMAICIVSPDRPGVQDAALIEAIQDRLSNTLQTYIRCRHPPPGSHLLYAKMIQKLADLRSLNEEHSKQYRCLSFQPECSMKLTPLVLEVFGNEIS
#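 After 23 nl compound addition and a short centrifugation, plates sat for 2 hours at ambient temperature; polarization of fluorescence then indicated loss of VDR binding to peptide SRC2-3.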
# An asterisk follows results filed as active; ? = inconclusive; ! = repeats disagree; [ ] = dose if it differs, or a comment. On the % scale 0 is the no-effect control and ±100 the full control effect; potency means the concentration at half of the fitted maximal effect. An excerpt; the hit share may differ from the screen's.
SMILES,VDR inhibitor
Cc1ccc(CS(=O)Cc2ccc(C(=O)NC3CCCCC3)o2)cc1 (stereo not given),-6%
COc1ccc(-n2cnnc2SCC(=O)c2cc(C)n(Cc3cccs3)c2C)cc1,2%
COC(=O)[C@]1(C)N[C@H](CN(C)S(=O)(=O)c2ccc(C(C)(C)C)cc2)[C@@H]2C(=O)N(C)C(=O)[C@@H]21,-4%
COc1ccc(CNC(=O)CSc2nn3c(=O)c(C(C)(C)C)nnc3s2)cc1OC,29%
O=C(COC(=O)c1ccc(Cl)c(S(=O)(=O)N2CCOCC2)c1)Nc1ccc2[nH]c(=O)[nH]c2c1,-12%
CCCCC/C=C\C/C=C\C/C=C\CCCCC(=O)O,40µM*!
CCN(CC(=O)Nc1c(F)cccc1F)C(=O)CSCC(=O)Nc1ccc(OC)cc1,-4%
Cc1cccn2c(=O)c3cc(S(=O)(=O)c4ccc(Br)cc4)c(=N)n(C4CCCCC4)c3nc12,6%
CCN(CC)C(=O)[C@H]1C[C@H](CC(=O)NCCCN(C)C)C(=O)N2CCc3c([nH]c4cc(-c5ccco5)ccc34)[C@]12C,-8%
CCCCN(CC)S(=O)(=O)N1CCC(C(=O)NCc2ccc(F)cc2)CC1,-22%
CCCn1c(SCC(=O)NCc2ccc(F)cc2)n[nH]c1=O,3%
COc1ccc(C)cc1C(=O)CCC(=O)N1CCN(c2ccccc2F)CC1,-5%
O=C(COc1coc(CN2CCc3ccccc3C2)cc1=O)Nc1ccccc1F,-14%
COC(=O)Cc1ccc(Oc2ncc(C(F)(F)F)cc2Cl)cc1,0%
O=C(CSc1nc2c(c(=O)n1-c1ccc(F)cc1)SCC2)Nc1ccc2c(c1)OCO2,4%
Cc1ccc(-c2csc(NC(=O)c3cccc(S(=O)(=O)N4CCN(C)CC4)c3)n2)cc1,-9%
CCOC(=O)CSc1nc2c(cnn2-c2ccc(F)cc2)c(=O)[nH]1,-12%
COc1ccc(C(=O)CC2SC(N)=NC2=O)cc1 (stereo not given),10%
CCCS(=O)(=O)N1CCC(C(=O)c2cccc(C(F)(F)F)c2)CC1,17%
C=CCOC(=O)c1ccc(N2CCN(c3ccccc3)CC2)nc1,-7%
c1ccc(NCc2nc3ccccc3n2CCOc2ccccc2)cc1,5%
Cc1ccc(CN2C(=O)CCC2C(=O)NCc2ccc(F)cc2)cc1 (stereo not given),12%
Cc1ccc(CNC(=O)[C@H]2C[C@@H]2[C@H](NP(=O)(c2ccccc2)c2ccccc2)c2ccccc2)o1,4%
CCOC(=O)c1nc(NNC(=O)c2ccc([N+](=O)[O-])cc2)sc1C,-3%
Cc1cccc(-n2ncc3c(=O)[nH]c(SCC(=O)NCCC4=CCCCC4)nc32)c1,48%[activator]
CC/C(=N\NC(=O)c1c(C)nc2ccccn12)c1ccccc1,-5%
COC(=O)c1cc(NC(=O)c2cc(-c3ccc(C(F)(F)F)cc3)oc2C(F)(F)F)ccc1N1CCOCC1,3%
Cc1ccc(S(=O)(=O)N(C)CC(=O)OCC(=O)NCCN2C(=O)CSC2=O)cc1,-16%
CCc1cc2c(cc3c(=O)n(CC(=O)NCCCN4CCCCCC4)nc(CC)n32)s1,-1%
O=c1c2cccnc2[nH]c(=S)n1Cc1ccccc1,6%
COc1ccc(N2CCN(C(=O)CCc3nc(-c4ccc(C)cc4)no3)CC2)cc1,16%
O=C(O)Cc1ccc(OCc2ccc(Cl)nc2)cc1,7%
COCCN(C(=O)COC(=O)c1ccc(Cl)nc1)c1c(N)n(Cc2ccccc2)c(=O)[nH]c1=O,-19%
CSc1nc2nc(-c3ccc(F)cc3)c(CCN3CCN(C)CC3)cn2n1,-14%
COc1ccc(OCCN(C)C(=O)c2cccc(S(=O)(=O)N(C)c3ccccc3)c2)cc1,0%
COc1cccc(N(C(=O)CNC(=O)c2ccco2)C(C(=O)NC2CCCC2)c2ccco2)c1 (stereo not given),-3%
CCSc1nc2ccccc2n1S(=O)(=O)c1ccccc1,5%
COc1ccc(CCN2CCCC(CN(C)C(=O)c3ccoc3)C2)cc1 (stereo not given),-12%
Cc1c(C(=O)OC(C)C)sc(N)c1C(=O)OC(C)C,-22%
COc1ccc(CN2CCn3nc(C(=O)NC4CC4)cc3C2=O)cc1,4%

# An excerpt from above in order of the VDR inhibitor value, largest number first:
SMILES,VDR inhibitor
COc1ccc(CNC(=O)CSc2nn3c(=O)c(C(C)(C)C)nnc3s2)cc1OC,29%
c1ccc(NCc2nc3ccccc3n2CCOc2ccccc2)cc1,5%
COC(=O)Cc1ccc(Oc2ncc(C(F)(F)F)cc2Cl)cc1,0%

# The listing continues:
SMILES,VDR inhibitor
CC1=CC=CC2=NC(=O)CC(C)(C(=O)N(CC(=O)NC3CCCC3)c3ccccc3C)N12 (stereo not given),1%
O=S1(=O)NC2c3ccccc3CC2O1 (stereo not given),?
O=C(CC12CC3CC(CC(C3)C1)C2)Nc1ccc2c(c1)COC2=O,-2%
COCCNC(=O)c1ccccc1N(Cc1ccccc1)S(=O)(=O)c1ccccc1,-17%
Cc1cccnc1NC(=O)CSc1nnc(CNC(=O)c2cccc([N+](=O)[O-])c2)n1C,5%
CCOC(=O)CCC(=O)N1CCOCCOCCN(C(=O)CCC(=O)OCC)CCOCC1,7%
CC1C/C(=N\NC(N)=S)c2cc(Cl)ccc2S1 (stereo not given),-16%
O=C(O)Cn1c(SCCOc2ccccc2)nc2ccccc21,-6%
O=C(NCCc1nc2ccccc2n1CCOc1ccccc1)C1CCCCC1,-4%
CCOc1ccccc1CNC(=O)c1cnc2sc(N3CCCC3)nn2c1=O,5%
CNC(=O)NC1CCCCc2sccc21 (stereo not given),-2%
COc1ccccc1CNCC(=O)Nc1cc(S(=O)(=O)N2CCCCC2)ccc1C,-4%
COc1ccc(-c2c(C)c3ccc(O)c(CN4CCCC4)c3oc2=O)cc1,12%
NNC(=S)Nc1ccc(S(=O)(=O)N2CCCCC2)cc1,-15%
O=C(Nc1ccc2c(c1)OCO2)C1COc2ccccc2O1 (stereo not given),-10%
Cc1noc(C)c1-c1ccc2ncnc(N(C)Cc3ccco3)c2c1,?
COc1ccc(/C=N/NC(=O)c2ccncc2)c(OC)c1,8%
NC(=O)NC(c1ccc(Cl)cc1)c1ccccc1Cl (stereo not given),-3%
Cc1ccc(C(=O)c2ccccc2C(=O)OCC(=O)NCCc2ccccc2)cc1,11%
O=C(NCC1CCCO1)c1cc(NS(=O)(=O)c2cccs2)cc(NS(=O)(=O)c2cccs2)c1 (stereo not given),-12%
CCCNC(=O)CC(NS(=O)(=O)c1ccc(Cl)cc1)c1ccco1 (stereo not given),7%
O=C(O)/C=C(/c1ccccc1)C(F)(F)F,5%
CCc1ccc(OCC2NCCc3cc(OC)c(OC)cc32)cc1 (stereo not given),0%
O=C1NC2(CCCCCC2)C(=O)N1Cc1ccc([N+](=O)[O-])cc1,-14%
O=C(c1cccc(NS(=O)(=O)c2ccc(Br)cc2)c1)N1CCCCC1,-5%
O=C(Cc1ccc(F)cc1)NCCc1cnc[nH]1,-6%
COC(=O)c1ccc(Cl)c(NC(=O)C2CCN(S(=O)(=O)Cc3ccccc3)CC2)c1,31%
CCC(C)(C)NC(=O)CN(Cc1ccc2c(c1)OCO2)C(=O)CCC(=O)Nc1nccs1,20%
Cc1ccc(CS/C(Nc2ccccc2C)=C(\C#N)C(N)=O)c(C)c1,-9%
COc1cc(/C=N\NC(=O)c2nonc2N)c(OC)cc1Br,-6%
COc1ccccc1NC(=S)NC1CCC(CC2CCC(NC(=S)Nc3ccccc3OC)CC2)CC1 (stereo not given),-3%
CN(C)S(=O)(=O)c1ccc(C(=O)NCc2nnc(SCC(=O)NCc3ccco3)o2)cc1,6%
CCc1ccc(OCCCCn2c(CCNC(=O)C3CCCCC3)nc3ccccc32)cc1,-18%
O=C(C[C@H]1C[C@H](C(=O)N2CCOCC2)[C@@]2(CCC3CCCC3)c3[nH]c4cc(-c5ccco5)ccc4c3CCN2C1=O)NCCC1=CCCCC1,-8%
COc1cc(C(=O)NCc2nc(-c3ccc(Cl)cc3)no2)cc(OC)c1OC,4%
O=C(c1c(F)cccc1F)N(Cc1ccccc1)Cc1ccccc1,2%
COc1cc(C2NC(=S)NC(C)=C2C(=O)Nc2ccc(C)cc2)ccc1O (stereo not given),-3%

# Another view of 26 compounds above.
canonical_smiles | VDR inhibitor
CCOc1ccccc1CNC(=O)c1cnc2sc(N3CCCC3)nn2c1=O | 5%
CNC(=O)NC1CCCCc2sccc21 (stereo not given) | -2%
COc1ccccc1CNCC(=O)Nc1cc(S(=O)(=O)N2CCCCC2)ccc1C | -4%
COc1ccc(-c2c(C)c3ccc(O)c(CN4CCCC4)c3oc2=O)cc1 | 12%
NNC(=S)Nc1ccc(S(=O)(=O)N2CCCCC2)cc1 | -15%
O=C(Nc1ccc2c(c1)OCO2)C1COc2ccccc2O1 (stereo not given) | -10%
Cc1noc(C)c1-c1ccc2ncnc(N(C)Cc3ccco3)c2c1 | ?
COc1ccc(/C=N/NC(=O)c2ccncc2)c(OC)c1 | 8%
NC(=O)NC(c1ccc(Cl)cc1)c1ccccc1Cl (stereo not given) | -3%
Cc1ccc(C(=O)c2ccccc2C(=O)OCC(=O)NCCc2ccccc2)cc1 | 11%
O=C(NCC1CCCO1)c1cc(NS(=O)(=O)c2cccs2)cc(NS(=O)(=O)c2cccs2)c1 (stereo not given) | -12%
CCCNC(=O)CC(NS(=O)(=O)c1ccc(Cl)cc1)c1ccco1 (stereo not given) | 7%
O=C(O)/C=C(/c1ccccc1)C(F)(F)F | 5%
CCc1ccc(OCC2NCCc3cc(OC)c(OC)cc32)cc1 (stereo not given) | 0%
O=C1NC2(CCCCCC2)C(=O)N1Cc1ccc([N+](=O)[O-])cc1 | -14%
O=C(c1cccc(NS(=O)(=O)c2ccc(Br)cc2)c1)N1CCCCC1 | -5%
O=C(Cc1ccc(F)cc1)NCCc1cnc[nH]1 | -6%
COC(=O)c1ccc(Cl)c(NC(=O)C2CCN(S(=O)(=O)Cc3ccccc3)CC2)c1 | 31%
CCC(C)(C)NC(=O)CN(Cc1ccc2c(c1)OCO2)C(=O)CCC(=O)Nc1nccs1 | 20%
Cc1ccc(CS/C(Nc2ccccc2C)=C(\C#N)C(N)=O)c(C)c1 | -9%
COc1cc(/C=N\NC(=O)c2nonc2N)c(OC)cc1Br | -6%
COc1ccccc1NC(=S)NC1CCC(CC2CCC(NC(=S)Nc3ccccc3OC)CC2)CC1 (stereo not given) | -3%
CN(C)S(=O)(=O)c1ccc(C(=O)NCc2nnc(SCC(=O)NCc3ccco3)o2)cc1 | 6%
CCc1ccc(OCCCCn2c(CCNC(=O)C3CCCCC3)nc3ccccc32)cc1 | -18%
O=C(C[C@H]1C[C@H](C(=O)N2CCOCC2)[C@@]2(CCC3CCCC3)c3[nH]c4cc(-c5ccco5)ccc4c3CCN2C1=O)NCCC1=CCCCC1 | -8%
COc1cc(C(=O)NCc2nc(-c3ccc(Cl)cc3)no2)cc(OC)c1OC | 4%

# High-throughput results from PubChem BioAssay.
